# Source: PubChem BioAssay (National Center for Advancing Translational Sciences (NCATS))
# TRPML1 inh – blocks the human TRPML1 channel; Q9GZU1; TRPML1-inducible cells, Ca2+ dye fluorescence, FDSS; hits give low values; inhibition of EC80 agonist-evoked calcium signal; activity change, negative = inhibition, % (test concentration not listed); 390,000 tested, 0.02% active; AID 624415; in the data active means activity change below about -50%; inconclusive means about -30% to -50%; inactive means above about -30%;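 note: stimulus is agonist 54-4 at its EC80 concentration; % is set by controls: 0 for no effect and ±100 for the full control effect; compound concentration not given in the record; the text of the record puts the active cut at -80%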
# Target sequence (Q9GZU1 whole entry, looked up): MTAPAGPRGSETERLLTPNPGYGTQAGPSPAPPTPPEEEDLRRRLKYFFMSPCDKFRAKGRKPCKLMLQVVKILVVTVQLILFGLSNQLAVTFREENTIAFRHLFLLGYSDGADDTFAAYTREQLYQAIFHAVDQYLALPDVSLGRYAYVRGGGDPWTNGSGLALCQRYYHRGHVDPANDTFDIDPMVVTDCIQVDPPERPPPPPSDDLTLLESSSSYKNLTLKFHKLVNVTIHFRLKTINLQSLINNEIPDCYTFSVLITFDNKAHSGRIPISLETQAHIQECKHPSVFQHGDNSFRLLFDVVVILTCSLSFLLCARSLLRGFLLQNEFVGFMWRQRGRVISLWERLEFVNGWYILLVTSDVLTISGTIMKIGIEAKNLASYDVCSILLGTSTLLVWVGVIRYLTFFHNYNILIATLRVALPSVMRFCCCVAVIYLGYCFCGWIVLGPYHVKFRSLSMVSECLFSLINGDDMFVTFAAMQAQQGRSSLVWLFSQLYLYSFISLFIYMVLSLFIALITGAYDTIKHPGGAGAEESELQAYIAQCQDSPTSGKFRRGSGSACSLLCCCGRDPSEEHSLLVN
#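 Calcium fluorescence in TRPML1-DL cells induced overnight with Tet: a 110 s read after compound pin addition, then a 110 s antagonist read after challenge with 54-4 at 4 uM final (EC80).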
# TRPML1 agonist – human mucolipin-1 channel agonism; TRPML1-expressing cells, Ca2+ dye fluorescence, FDSS; host cell line not named in the record; reference of the full effect not given here; activation, % (concentration not given with the values); 410,000 tested, 0.12% active; AID 624414; in the data active = activation above about 50%; inconclusive = about 30% to 50%; inactive = below about 30%; note: 0% is about no effect; the text of the record puts the active cut at 80%
#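 Agonist activity was taken from a 110 s kinetic Ca2+ dye read on the FDSS after pinning compounds onto TRPML1-DL cells. The cells were seeded at 1,500/well with Tet inducer, incubated about 16 h, then dye-loaded at room temperature.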
# ClpP mod – qHTS Assay for Activators of ClpP; ATP-dependent Clp protease proteolytic subunit (Bacillus subtilis (strain 168)), P80244; purified B. subtilis ClpP, FRET peptide cleavage, 20 min; Potency, µM (titrated, usually from 57.5 µM), inactives show top-dose activity change, negative = active; 340,000 tested, 1.9% active; AID 651965, 2013; active = well fitted falling curve with a large enough effect; inconclusive = small, poorly fitted or top-dose-only effect; inactive = no such curve, though single readings can be large or run the other way; note: potency is the fitted concentration of half-maximal effect; the source files actives as falling curves though it sought activators and does not explain the sign; nearly all actives have a fitted effect of over 65% in size; many hits overshoot -100%
# Target sequence (P80244 whole entry, looked up): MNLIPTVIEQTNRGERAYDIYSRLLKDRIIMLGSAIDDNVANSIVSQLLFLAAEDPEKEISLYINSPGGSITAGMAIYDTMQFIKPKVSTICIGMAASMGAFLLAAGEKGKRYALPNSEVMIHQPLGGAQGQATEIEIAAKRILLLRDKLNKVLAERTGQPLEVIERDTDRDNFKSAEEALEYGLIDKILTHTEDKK
#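 ClpP 10 microg/mL final, pH 8 Tris/KCl buffer with BSA, glycerol, Tween-20; compound pinned in; FRET-FV substrate; RT 20 min; Ex320/Em430; ΔFRET vs ADEP 5.8 microM, DMSO, no enzyme.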
# TRPV1 potentiator – human TRPV1 potentiation | Q8NER1 | potentiation, % at 8.33 µM | TRPV1-expressing cells, Fluo-8 calcium influx, capsaicin EC20 potentiation; host cell line not named in the record; control for the full effect not named in the record | 320,000 tested, 0.02% active; active means potentiation above 80%; inconclusive means 30% to 80%; inactive means below 30%; note: 0% is about no effect
#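 Fluo-8 calcium influx in TRPV1-expressing cells, kinetic read (ex 480/em 520 nm). Compound added and read 3 min for agonist activity, followed by capsaicin at EC20 final and 2 min further read for enhancement.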
# Sfp inh – blocks B. subtilis Sfp PPTase activity. 310,000 tested, 3.5% active. Biochemical Sfp PPTase activity, qHTS. Potency, µM, for inactives: max response, negative = inhibition, actives largely listed as inhibitors. Q9F4F7; active = well fitted inhibition curve with a large enough effect; inconclusive = small, poorly fitted or top-dose-only effect, or another doubt; inactive = no such curve, though single readings can be large or run the other way;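 note: the enzyme is Sfp with the accession as filed and its product quenches rhodamine fluorescence; potency is the fitted concentration of half-maximal effect; 0% = enzyme reaction without inhibitor and -100% = no enzyme wells; top concentration of the series not given in the record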
#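 Buffer: 50 mM Hepes-Na pH 7.6, 10 mM MgCl2, 0.01% Nonidet P-40, 0.01% BSA. Enzyme 15 nM, pre-exposed to compound 15 min; substrates then added and fluorescence change tracked over 30 min.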
# PINK1 modulator – changes PINK1 expression; PINK1 immunofluorescence, high-content cytometry, 24 h; Potency, µM (highest dose often 76.6 µM), without a hit: at the top dose activation (PINK1 increase), most hits filed as activators; 410,000 tested, 0.2% active; AID 624263; active = well fitted activation curve with a large enough effect; inconclusive = small, poorly fitted or top-dose-only effect; inactive = flat fitted curve, though single readings scatter; cell line not stated here;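 note: potency is the fitted concentration of half-maximal effect; % of control where 0% means no effect; nearly all actives have a fitted effect of over 65% in size; a mitochondrial uncoupler was the plate control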
#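 Stable cell line treated 24 h with compounds at 5 concentrations (CCCP controls), then fixed and immunostained for PINK1 plus nuclear and cell stains; PINK1 immunofluorescence quantified by laser-scanning microplate cytometry.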
# Menin MLL FP FL – displaces fluorescein MLL peptide from human menin; Fluorescence polarization, fluorescein-MLL peptide displacement from menin; FP activity change, % at 61.4 µM; 290,000 tested, under 10 active; AID 1766; inconclusive = falling polarisation curve, or a change in total fluorescence; inactive = total fluorescence flat and polarisation flat or rising; no compound was filed as active; the % refers to the polarisation; negative = inhibition;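 note: % of control where 0% means no effect; inhibitors lower the polarisation; unlabelled MLL peptide was the positive control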
# Active calls of the source: *; ? = inconclusive; . = not tested or not shown; & = joins results of further samples; [ ] = dose if it differs, or a comment.
SMILES,TRPML1 inh,TRPML1 agonist,ClpP mod,TRPV1 potentiator,Sfp inh,PINK1 modulator,Menin MLL FP FL
Cc1occc1C(=O)NCCCCNC(=O)c1ccoc1C,-23,0.2,5.1%,2,7%,-0.1%,2.4
Cc1ccc(C)c(OCCn2c(-c3ccc(Cl)cc3)nc3ccccc3c2=O)c1C,1,-0.6,-0.3%,.,.,1.9%,.
Cc1ccc(F)cc1C(=O)N1CCCC(C)(C(=O)NS(=O)(=O)C2CC2)C1 (stereo not drawn),-5,0.3,-0.1%,.,.,-0.6%,.
Cc1c(NC(=O)c2cccs2)c(=O)n(-c2ccccc2)n1C,37,-0.3,.,10,-5%,-0.9%,-1.7
CCOc1ccc(NC(=O)c2sc3ccccc3c2Cl)cc1,17,-0.4,2.0%,.,.,0.5%,.
COc1ccc(C2/C=C\CC(OCc3ccccc3)CC(=O)N2Cc2cccc(F)c2)cc1 (stereo not drawn),75,2.2,-5.5%,.,-6%,2.2%,0.3
Cc1ccc(C)c(NC2CCCCC2NS(=O)(=O)c2ccccc2)c1 (stereo not drawn),0,0.8,-2.9%,-12,-3%,4.8%,.
CCO[C@@H]1OC(C(=O)NC2CC2)=C[C@H](c2coc3ccccc3c2=O)[C@H]1CCCO,1,-0.8,-4.8%,.,.,0.1%,.
COC(=O)C(CC(C)C)NS(=O)(=O)c1cc(Br)ccc1Br (stereo not drawn),-12,1.9,.,.,6%,.,1.2
Cc1ccc(N2C(=O)CS(=O)(=O)C23C(=O)N(Cc2cccc(F)c2)c2ccccc23)cc1Cl (stereo not drawn),-11,0.4,0.7%,.,.,1.3%,.
O=C(CSc1nnc(C2CC2)n1-c1ccccc1)NCCN1C(=O)CSC1=O,28,-0.6,-2.2%,4,17%,0.4%,-3.0
O=C(CCC(=O)OCCCC(F)(F)C(F)(F)F)NC1CCCCC1,-7,0.1,0.0%,9,0%,0.5%[38.3 µM],1.7
O=C(NCCOc1ccccc1)C1CCC(=O)N(CCCN2CCOCC2)C1 (stereo not drawn),-7,0.3,-0.7%,.,.,0.0%,.
O=C(Nc1nc2ccc(S(=O)(=O)N3CCCC3)cc2s1)c1cccs1,2,1.2,-7.0%,-7,-9%,0.7%,4.0
CC(C)C[C@@H](CN1CCCC1CN1C(=S)NC[C@@H]1Cc1ccc(O)cc1)N1C[C@H](Cc2ccc(O)cc2)N(CC2CCCCCC2)C1=S (stereo partly drawn),-2,-0.5,0.4%,.,.,-1.5%,.

# (next part)
SMILES,TRPML1 inh,TRPML1 agonist,ClpP mod,TRPV1 potentiator,Sfp inh,PINK1 modulator,Menin MLL FP FL
Cn1ncc([N+](=O)[O-])c1C(=O)N/N=C/c1c[nH]c2ccccc12,0,0.6,-2.2%,4,8%,0.8%,-4.3
CCc1ccc(NC(=O)CCc2nc3ccccc3[nH]2)cc1,11,-0.6,.,11,12%,14%,-2.6
Cc1noc(C)c1C(=O)Nc1ccc(-n2ccc(C(F)(F)F)n2)cc1,-20,-1.0,-3.4%,-2,13%,10%,1.0
Cc1ccc(S(=O)(=O)N2CCN(C(=O)c3ccccc3)CC2)c(C)c1NS(C)(=O)=O,?,0.8,-0.6%,-8,9%,1.5%,0.6
CCCCNC(=S)N/N=C/c1ccc(C#N)cc1,-6,0.3,.,12,14%,1.8%,0.4
CCn1cc(CN2CCC(n3nccc3NC(=O)CCOc3ccccc3)CC2)cn1,-4,0.3,-0.8%,-2,10%,-0.3%,.
CCOC(=O)C1C(=O)NC(N2CCN(Cc3ccccc3)CC2)=NC1c1ccco1 (stereo not drawn),-2,0.1,4.4%,1,14%,-1.8%[38.3 µM],2.6
CN1CCCC(OC(=O)COc2ccc(Br)cc2)C1 (stereo not drawn),8,0.0,-1.4%,-1,17%,-0.7%,0.4
CCOC(=O)CSc1nnc(CNC(=O)c2cc(OCC)c(OCC)c(OCC)c2)n1C,9,0.4,-3.3%,-7,7%,-3.4%[38.3 µM],2.4
O=C(N/N=C/C1CC=CCC1)c1ccccc1O (stereo not drawn),-5,0.0,-10%,-7,-18%,4.6%,-1.9
O=[N+]([O-])c1ccccc1CSc1ccccn1,0,1.2,.,-15,-2%,1.9%,3.0
O=C1C=C(O)C(n2cncn2)C(c2cc(F)ccc2F)C1 (stereo not drawn),-12,-0.6,.,-10,15%,0.8%,-0.3
CC(C)C(NC(=S)NCc1ccccc1)C(=O)O (stereo not drawn),10,-0.7,1.8%,-5,-2%,0.1%,0.5
Cc1ccc(N2C(=O)CCC2(C#N)c2ccccc2)cc1 (stereo not drawn),-19,1.6,-1.5%,-14,7%,-2.0%,-1.1
CCOc1ccc(-n2c(=O)c3c4c(sc3n(CC(=O)NCCCOC)c2=O)CCCCC4)cc1,-9&7,-0.6&0.1,-1.6%,-4,22%,-0.4%&0.0%,0.6

# The listing continues:
SMILES,TRPML1 inh,TRPML1 agonist,ClpP mod,TRPV1 potentiator,Sfp inh,PINK1 modulator,Menin MLL FP FL
OC[C@@H]1CN(Cc2ccc(F)cc2)C[C@H](n2cnc3c(NC4CC4)ncnc32)O1,.,0.4,-1.4%,.,.,-0.3%,.
NC(=S)NN=C1CCCCCCCCC1,-17,0.5,-0.9%,.,.,-1.4%,.
C=CCS(=O)(=O)N1CCC(CCOc2ccccc2)(C(=O)OCC)CC1,1,-0.4,2.0%,8,10%,-0.9%,-2.7
Cc1ccc(Cc2cnc(NC(=O)/C(C#N)=C/c3ccc(-c4ccc([N+](=O)[O-])cc4)o3)s2)cc1,57,0.6,-3.3%,25,1%,16%,3.9
Cc1cc(C)n2nc(CNS(=O)(=O)c3ccc(C)c(C)c3)nc2n1,10&6,-0.4&-0.2,0.5%&-0.1%,1,6%,0.4%&3.5%,0.0
COC(=O)c1cc2sc(C)cc2n1CC(=O)Nc1cccc(SC)c1,20,-0.2,-22%,.,.,7.5%,.
CN1CCN(CCCNC(=O)c2ccc(/C=C3\Sc4ccccc4N(Cc4ccccc4F)C3=O)cc2)CC1,16,0.3,-4.9%,-8,40µM*,0.0%,1.6
O=c1c2c3c(sc2ncn1-n1cccc1)CCCCC3,2,-0.1,1.8%,-27,14%,0.3%,-4.0
O=C(O)c1cccc(N/C(=N\S(=O)(=O)c2ccccc2)c2ccccc2)c1,37,0.8,0.3%,-11,16%,-1.2%,-5.9
O=C(Cc1n[nH]c(=O)[nH]c1=O)N/N=C/c1ccccc1O,-10,0.6,-20%,3,16%,.,0.3
CC(=O)Nc1ccc(CN2CCN(C3CCCCC3)C(CCO)C2)cc1 (stereo not drawn),10,-0.1,-1.6%,-3,12%,-0.3%,-2.8
O=C(N/N=C/C(Br)=C/c1ccccc1)c1n[nH]c2c1CCC2,-9,-0.4,-0.4%,-6,?,5.0%[38.3 µM],5.9
CCc1ccc(NC(=O)C(CC)n2c(=O)c(-c3ccccc3NC(C)=O)nc3ccccc32)cc1 (stereo not drawn),14,2.5,-13%,.,.,4.0%,.
COc1cc(OC)nc(Oc2cc(C=O)ccc2OC)n1,1,-0.7,-1.0%,-5,16%,13%,-3.1
NC(=S)N/N=C/c1cccc(/C=N/NC(N)=S)c1,1,-0.6,.,-9,-28%,-3.9%,5.3

# Next part.
SMILES,TRPML1 inh,TRPML1 agonist,ClpP mod,TRPV1 potentiator,Sfp inh,PINK1 modulator,Menin MLL FP FL
CCn1c(=O)c(C(=O)CN(C)CC(=O)Nc2ccccc2Br)c(N)n(Cc2ccccc2)c1=O,8,0.0,0.4%,4,.,1.8%,.
CCN1C(=O)[C@@H]2[C@@H](c3ccc(SC4CCCCC4)c(OC)c3)N3CCCC[C@@]3(C(=O)OC)[C@@H]2C1=O,28,1.8,-2.8%,.,.,5.2%,.
COC(=O)c1ccc2c(c1)c(C#Cc1ccccc1)c(-c1ccccc1)n2C,-4,-0.4,4.9%,.,8%,0.5%,17
O=C(O/N=C/c1ccc2c(c1)OCO2)c1ccccc1Cl,.,.,.,17,?,.,6.6
COc1ccc(-n2c(=O)c3ccc(C(=O)NCc4ccc(C)cc4)cc3n(Cc3ccc(F)cc3Cl)c2=O)cc1,24,0.5,-16%,.,.,-3.8%,.
Nc1ccn([C@@H]2O[C@H](C(=O)Nc3ccc(C(=O)N4CCCCC4)cc3)[C@@H](O)[C@H]2O)c(=O)n1,.,-0.2,1.1%,.,.,-0.3%,.
CCOC(=O)N/N=C1\CC(C)S(=O)(=O)c2ccc(Cl)cc21 (stereo not drawn),-9,0.8,0.0%,13,20%,-0.1%,-1.8
CC(C)(C)c1cc(C(=O)Nc2cccnc2)cc(C(=O)Nc2cccnc2)c1,-9,0.0,-1.0%,-4,4%,0.1%,-5.4
O=C(NCCCl)c1ccc(OCc2ccccc2)cc1Cl,-26,1.0,2.6%,-6,-16%,1.5%,2.0
O=S(=O)(c1cccs1)N1CCN(c2cccc(Cl)c2)CC1,19,-0.2,.,-8,15%,-3.0%,-1.2
CC(C)(CO)NC(=O)c1ccc2nc(Cc3cccc(Cl)c3)oc2c1,.,.,1.2%,1,8%,2.1%,0.3
Cc1ccc(S(=O)(=O)Nc2cc(Cl)c3oc4c(c3c2)CCCC4)cc1,4,-0.3,-1.2%,.,.,4.6%,.
O=C(CSc1nncn1-c1ccccc1)Nc1cc(Cl)cc(Cl)c1,12,1.6,-0.2%,2,8%,3.5%[38.3 µM],3.6
COCCN(C(=O)COC(=O)/C=C/c1ccc(Cl)c(Cl)c1)c1c(N)n(Cc2ccccc2)c(=O)[nH]c1=O,-5,1.4,-0.4%,.,.,-1.8%,.
COc1ccccc1COCC(O)CNCCc1ccc(C(F)(F)F)cc1 (stereo not drawn),.,.,0.9%,-12,?,0.0%,-7.4
O=C(Nn1cnnc1)c1cc(-c2ccccn2)nc2ccccc12,5,-0.3,-1.5%,-2,10%,-1.4%,3.4
